From PubChem BioAssay
LT uptake inh: inhibitors of anthrax lethal toxin internalization | Cells, anthrax lethal toxin internalization, FRET ratio (460/530) | Potency, µM (doses to about 40 µM), for inactives: at the highest dose activity change, negative = inhibition, most hits filed as inhibitors | hit rate 0.67% among 70,000; active = well fitted falling ratio curve with the 530 nm signal flat; inconclusive = other ratio curves, or a change in one channel alone; inactive = flat curves in the ratio and both channels; the % refers to the ratio; note: % is set by controls: 0 for no effect and ±100 for the full control effect; nearly all actives have a fitted effect of over 50% in size; tested in ME-180 cells; beta-lactamase reporter
Prx2 Sm inh: inhibitors of Schistosoma mansoni peroxiredoxin 2; S. mansoni Prx2 activity coupled to TGR/GSH (TGR is thioredoxin glutathione reductase), NADPH fluorescence loss, qHTS; some inactives read as strong as hits; Potency, µM; hit rate 0.07% among 65,000; active means full or partial inhibition curve with a strong effect at the top dose; inconclusive means weaker partial or single-point curve; inactive means no accepted curve; note: series up to 57 µM; many of its hits are not listed in these tables
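Activity is read as the drop in NADPH fluorescence (365/450 nm), recorded every 30 sec for 8 min after H2O2 addition. Prx2 is coupled to TGR-driven NADPH oxidation through glutathione, in phosphate buffer pH 7.4.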
* = called active by the depositor; ? = inconclusive; . = no result given; & = joins results of further samples; [ ] = dose if it differs, or a comment. Potency is the fitted concentration of half-maximal effect.

SMILES | LT uptake inh | Prx2 Sm inh
O=C1c2ccccc2C(Nc2ccc(Cl)cn2)N1c1cccnc1 (centres undefined) | -12% | >57
CC(C)C(NC(=O)C1CCCCC1)C(=O)N1CCN(c2ccc(F)cc2)CC1 (centres undefined) | -4% | >57
CCN1CCN(C(=O)c2ccccc2N(Cc2ccccc2)S(C)(=O)=O)CC1 | -4% | >57
COc1ccccc1NC(=O)c1ccccc1NS(C)(=O)=O | ? | >57
O=C(O)c1ccccc1C(=O)N1CC=C(c2ccccc2)CC1 | -4% | >57
CCCc1cc(=O)oc2cc3occ(C)c3cc12 | 1% | .
CCCC(C)NC(=O)c1ccc(F)cc1 (centres undefined) | -10% | .
NC(=O)c1ccc(OC[C@H](O)CN2CC=C(c3ccc(F)cc3)CC2)cc1 | -13% | >57
COc1ccc(Cc2ccccc2C(=O)O)c2ccccc12 | -8%[8 µM] | >57
Cc1ccccc1-c1nnn(CC(=O)c2ccc(S(=O)(=O)N3CCCC3)cc2)n1 | 22% | >57
COc1cccc(-c2cc(C(F)(F)F)n3nc(N)nc3n2)c1 | . | >57
O=C(c1cc(C(F)(F)F)cc(C(F)(F)F)c1)N1CCC2(CC1)CCN(c1ccccc1)CC2 | 5% | >57
CCN(CC)S(=O)(=O)c1ccc(NC(=O)C2COc3ccccc3O2)cc1 (centres undefined) | -13% | >57
O=C(Cn1nnc(-c2ccc(S(=O)(=O)N3CCCC3)cc2)n1)NCC1CCCO1 (centres undefined) | -20% | >57
COc1ccccc1S(=O)Cc1ccc(C(=O)NC2CCCC2)o1 (centres undefined) | -19% | >57
CCC(=O)Nc1ccc(C(=O)Nc2ccc3c(c2)C(=O)N(CC2CCCO2)C3=O)cc1 (centres undefined) | 1% | .
OC[C@@H]1NC[C@@H](O)[C@@H](O)[C@H]1O | 6% | >57
O=C(Nc1cnn(Cc2ccc(Cl)cc2)c1)C1CCCC1 | 0% | >57
CCc1ccccc1N(CC(=O)NCc1ccco1)C(=O)c1snc(C(N)=O)c1N | ? | >57
O=C(C1CCCN(S(=O)(=O)c2ccc(F)cc2)C1)N1CCCC1 (centres undefined) | 9% | >57
CC1=CC(C)=Nc2ccc(C)cc2N1 | ? | >57
CC1(C)CC(=O)c2cnc(NC(=O)CSc3nc4ccccc4o3)nc2C1 | 4% | >57
CCCCn1c(SCN2C(=O)c3ccccc3C2=O)nc2cc(S(N)(=O)=O)ccc21 | 15% | >57
CCN1C(=O)/C(=C/N2CCc3ccccc32)SC1=S | ? | >57
Cc1cc(Cl)cc(C)c1OCCCCn1ccnc1 | ? | >57
Cc1cccc(OCc2nnc(SCc3nc4ccccc4c(=O)[nH]3)o2)c1 | -3% | >57
O=C(Cn1nc(-c2ccccc2)ccc1=O)Nc1ccc(N2CCN(C(=O)c3ccccc3)CC2)cc1 | -6% | >57
O=C(c1cc(-c2cccc(O)c2)on1)N1CCN(C(c2ccccc2)c2ccccc2)CC1 | ? | >57
O=C(O)C1CC(c2cccc(Br)c2)=NO1 (centres undefined) | 22% | >57
COC(=O)C1(C)NC(=O)c2ccccc2N1 (centres undefined) | -3% | >57
c1ccc2nc(CC[C@@H]3CCCCN3)ccc2c1 | 4%[8 µM] | >57
Cc1nn(Cc2ccc(Br)cc2)c(C)c1NC(=O)c1nn(C)cc1Cl | -3% | >57
c1ccc(-n2nnc3c(N4CCOCC4)ncnc32)cc1 | 3% | >57
O=C(COC(=O)c1ccc[nH]c1=O)NC1CCCC1 | -20% | >57
COC(=O)C1=C(C(C)=O)C(c2ccc(C)cc2)n2nnnc2N1 (centres undefined) | 0% | >57
c1ccc(C2CC3CC4(CCCC4)N2O3)cc1 (centres undefined) | -14% | .
CN(C(=O)COc1cc(=O)n(C)c2ccccc12)c1cccc(Cl)c1 | -6% | >57
Cn1c(=O)[nH]c(=O)c2c1nc(N1CCOCC1)n2CCN1CCOCC1 | -5% | >57
c1ccc2nc(-c3nc4ccccc4o3)ccc2c1 | -3% | >57
COc1ccccc1CCNC(=O)CSc1nc(-c2ccco2)cc(C(F)(F)F)n1 | -8% | >57

Single records (already shown). Order of values: LT uptake inh, Prx2 Sm inh
O=C(O)C1CC(c2cccc(Br)c2)=NO1 (centres undefined) is listed with 22%, >57
CN(C(=O)COc1cc(=O)n(C)c2ccccc12)c1cccc(Cl)c1 is listed with -6%, >57

Next part:
SMILES | LT uptake inh | Prx2 Sm inh
CCC1(NC(C)=O)CC2CC1CC2NC(C)=O (centres undefined) | ? | >57
Cc1nnc(N(C)C(=O)Cc2ccc3c(c2)OCO3)s1 | ? | >57
Cn1c(=O)c2c(nc(CN3CCN(C(=O)c4ccco4)CC3)n2Cc2ccc(Cl)cc2)n(C)c1=O | -5% | >57
COCCNC(=O)C(c1cccs1)N(C(=O)Cn1nnc2ccccc21)c1ccccc1 (centres undefined) | 8% | >57
CN(C)c1nc(N)nc(CSc2ncc(Cl)cc2Cl)n1 | 8% | >57
CCN1C(=O)c2cccc3c(NC(=O)c4ccc(S(=O)(=O)N5CCOCC5)cc4)ccc1c23 | -11% | .
CCC(C)c1ccc2oc(-c3ccc(NC(=O)c4ncn[nH]4)cc3)nc2c1 (centres undefined) | ? | >57
CC(C)c1cc(CN(C)C)c(O)c(C(C)(C)C)c1 | -9%[8 µM] | >57
CCOc1cc(-c2nc3cc(C)ccn3c2NCC2CCCO2)ccc1O (centres undefined) | 12% | >57
COc1ccc(OC)c2c(C)cc(NCCN3CCOCC3)nc12 | ? | .
O=C(c1ccncc1)N1CCC2(CCCN(Cc3nccs3)C2)CC1 | ? | >57
C[C@@H]1CCc2cc(F)cc3c(=O)c(C(=O)O)cn1c23 | -3%[3.58 µM] | >57
COC(=O)c1ccc(NC(=O)C2CCCO2)cc1 (centres undefined) | -22% | >57
Cc1ncc(CN=Cc2ccc(Cl)cc2)c(N)n1 | ? | >57
CCOc1cc(C(=O)OCC(=O)NCc2ccco2)cc(OCC)c1OCC | -2% | >57
FC(F)(F)c1ccccc1-c1cncnc1NCc1cccs1 | -16% | >57
O=S(=O)(c1cccs1)N1CCN(CC(O)COc2cc(Cl)ccc2Cl)CC1 (centres undefined) | ? | >57
CCSc1nnc(NC(=O)c2ccccn2)s1 | 1% | >57
O=C(O)c1cc(-c2ccc3cc4c(cc3c2)OCO4)nc2ccccc12 | -5%[8 µM] | >57
O=C(NCC12CC3CC(CC(C3)C1)C2)c1cc2n(n1)C(C(F)(F)F)CC(c1ccco1)N2 (centres undefined) | 0% | >57

Rewritten comma-delimited: part of the list above
mol,LT uptake inh,Prx2 Sm inh
COC(=O)c1ccc(NC(=O)C2CCCO2)cc1 (centres undefined),-22%,>57
Cc1ncc(CN=Cc2ccc(Cl)cc2)c(N)n1,?,>57
CCOc1cc(C(=O)OCC(=O)NCc2ccco2)cc(OCC)c1OCC,-2%,>57

Further records follow.
SMILES | LT uptake inh | Prx2 Sm inh
CCOC(=O)N1CCN(C(=O)CSCC(=O)Nc2nc(-c3ccc(OC)cc3)cs2)CC1 | -17% | >57
CCOC(=O)c1sc(NC(=O)CSc2ncn(-c3ccccc3)n2)nc1C | -6% | >57
O=C(c1ccc(NS(=O)(=O)c2ccccc2)cc1)N1CCN(Cc2ccc3c(c2)OCO3)CC1 | -28% | >57
N#Cc1ccc(NC(=O)CN2C(=O)NC(Cc3ccccc3)C2=O)cc1 (centres undefined) | -10% | >57
OC[C@@H]1O[C@H](n2cnc3c(/C=C(\O)c4ccccc4)ncnc32)[C@H](O)[C@@H]1O | -3%[8 µM] | >57
Cc1ccc2nc(NC(=O)CCNS(=O)(=O)c3cccs3)sc2c1 | -22% | >57
CCOC(=O)Cn1cc(C(=O)c2ccco2)c2ccccc21 | -1% | >57
CN1CCN(c2oc(-c3cccs3)nc2S(=O)(=O)c2ccccc2)CC1 | 13% | >57
COc1cccc(C(=O)N2CCN(C3CCC(c4ccccc4)CC3)CC2)c1 (centres undefined) | -9% | >57
CC1=CCC2C(=O)N(c3nc(C)cc(C)n3)C(=O)C2C1 (centres undefined) | -4% | >57
CCOc1ccc(N2C(=O)c3cccnc3C2=O)cc1 | 3% | >57
CC(=O)OC[C@@H]1O[C@@H](O/N=C2/C[C@@H](O)[C@@H](O)[C@@H]3[C@@H]4C(=O)N(Cc5ccc6c(c5)OCO6)C(=O)[C@H]4CC[C@H]23)[C@H](OC(C)=O)[C@H](OC(C)=O)[C@@H]1OC(C)=O | ? | .
CCCc1[nH]nc2c1C(c1cccc(OC(=O)c3ccco3)c1)C(C#N)=C(N)O2 (centres undefined) | 5% | >57
O=C(COc1ccc(S(=O)(=O)NC2CCCC2)cc1)N1CCCCCC1 | 0% | >57
CC(C)CCn1c(=O)c2ccccc2n2c(CN(C)Cc3ccccc3)nnc12 | 5% | >57
O=C(CCC(=O)N1CCN(C2CCCCC2)CC1)Nc1nnc(C(F)(F)F)s1 | 0% | >57
CCOC(=O)C(NC(=O)c1ccccc1)(N1CCCC1=O)C(F)(F)F (centres undefined) | -5% | >57
Cn1c(=O)oc2ccc(C(=O)CSc3nnnn3-c3ccccc3)cc21 | -8% | >57
Cc1cccc(C)c1NC(=O)Cn1nnc(-c2ccc(N3CCOCC3)cc2)n1 | -2% | >57
CC[C@](N)(CCC(=O)O)C(=O)O | -10% | >57
CCOc1ccc(OCC)c(NC(=O)CN(c2ccc(C)cc2)S(=O)(=O)c2c(C)noc2C)c1 | ? | >57
O=C(c1cc(S(=O)(=O)N2CCCCC2)c(Cl)cc1N1CCOCC1)N1CCOCC1 | -3% | >57
N#C/C(=C\Nc1ccccn1)C(=O)c1ccco1 | -4%[8 µM] | >57
CC(=O)c1ccc(OCC(O)CN2CCN(CCO)CC2)cc1 (centres undefined) | 1% | >57
CC(=O)OCC1OC(C#CC(C)(C)C)C=CC1OC(C)=O (centres undefined) | -2%&-20%[8 µM] | .
CCOC(=O)N1CCN(C(=O)c2sc3nc(-c4ccc(F)cc4)cn3c2C)CC1 | 0% | >57
COc1ccc(OCc2nnc(SCC(N)=O)n2-c2ccccc2OC)cc1 | -5% | >57
C=CCc1cc(C(=O)N2CCCCC2)ccc1O | ? | >57
COc1cc(-c2nnc(SCC(=O)c3ccc(C)cc3)o2)cc(OC)c1OC | -8% | >57
COc1ccc(-c2nc(C#N)c(NCC3CCCO3)o2)cc1OC (centres undefined) | -1% | >57
COC(=O)[C@@H]1[C@@H]2C[C@H]3c4[nH]c5cc(OC)ccc5c4CCN3C[C@@H]2C[C@H](OC(=O)c2cc(OC)c(OC)c(OC)c2)[C@H]1OC | 6%[3.58 µM] | >26
COc1ccc(OCc2nnc3n2N=C(c2ccc(OC)cc2)CS3)cc1 | -1% | >57
CCOC(=O)C1CCN(c2c(NC3CCCCCCC3)c(=O)c2=O)CC1 | 9% | >57
Cc1c(C)c2ccc(OCC(=O)N(C)C)c(C)c2oc1=O | -11% | >57
Cc1ccc(NC(=O)Cn2cccc2)c(Br)c1 | -9% | >57
CCOC(=O)c1nn(-c2cc(C(=O)OC)cc(C(=O)OC)c2)cc1O | 6% | >57
O=C(CSc1nnc(-c2ccccc2Br)o1)N1CCc2ccccc2C1 | -11% | >57
O=C(Oc1ccccc1)N1CCC2(CCCN(c3ccc(-c4ccccc4)cc3)C2)CC1 | ? | >57
CCOC(=O)N1CCN(C(=O)c2ccc(NS(C)(=O)=O)cc2)CC1 | 1% | >57
COC(=O)C1C(=O)C2=C(CC1C)NC(C)=C(C(=O)OCc1ccc(OC)cc1)C2c1ccc(C)o1 (centres undefined) | 3% | >57
CO[C@@H]([CH2][Hg])CN1C(=O)c2ccccc2S1(=O)=O.Cn1c(=O)c2nc[nH]c2n(C)c1=O | ? | 1.3*
Cn1c(=O)oc2cc(S(=O)(=O)NCCC(=O)NC3CCCC3)ccc21 | 14% | >57
O=C(O)CSC(NC(=O)c1cccnc1)(C(F)(F)F)C(F)(F)F | -6% | >57
Cc1ccc(CN(C)CCc2ccccn2)cc1 | -8% | >57
CC(C)n1c(/C=C\[C@@H](O)C[C@@H](O)CC(=O)O)c(-c2ccc(F)cc2)c2ccccc21 | -4%[3.58 µM] | >57
O=C(CSc1nnc2sc3ccccc3n12)N1CCN(c2ccccc2)CC1 | ? | >57
Cc1ccc(Nc2nc(N)nc(CN3CCN(Cc4ccc5c(c4)OCO5)CC3)n2)c(C)c1 | 4% | >57
Cc1nc2cnc(N3CCN(C)CC3)nc2n(C[C@H]2CCCO2)c1=O | ? | >57
Cc1cc(NC(=O)C2CC(=O)OC2c2ccccc2)no1 (centres undefined) | 7% | >57
ClC1=C(Cl)C2(Cl)C3C4C=CC(C4)C3C1(Cl)C2(Cl)Cl (centres undefined) | ? | .
COc1ccc(-c2nc(C#N)c(N3CCN(c4ccccc4)CC3)o2)cc1 | ? | >57
Cc1cc(C)n(C(=O)CNc2cccc(Cl)c2C)n1 | -6% | >57

Reprinted at random: 4 records from the list.
SMILES | LT uptake inh | Prx2 Sm inh
Cc1ccc(Nc2nc(N)nc(CN3CCN(Cc4ccc5c(c4)OCO5)CC3)n2)c(C)c1 | 4% | >57
Cc1cc(NC(=O)C2CC(=O)OC2c2ccccc2)no1 (centres undefined) | 7% | >57
O=C(CSc1nnc2sc3ccccc3n12)N1CCN(c2ccccc2)CC1 | ? | >57
COc1ccc(-c2nc(C#N)c(N3CCN(c4ccccc4)CC3)o2)cc1 | ? | >57

An excerpt. The share of hits here may be higher or lower than overall.
